Compound activity (PubChem BioAssay)
T cruzi repl: blocks replication of Trypanosoma cruzi. T. cruzi beta-gal in NIH3T3, luminescence, 90 h. inhibition, % (test concentration not listed). 300,000 tested, 1.4% active. AID 1885;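 active = mean inhibition across valid replicates above about 55%, limit read from the data; inconclusive = mean below that limit but half or more replicates reach it; inactive = mean below it, under half of replicates reach it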;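 also: signal also drops with host cell toxicity which is not excluded here; 0% = plate median of DMSO wells and 100% = zero luminescence signal; higher percent means less beta-gal luminescence so fewer parasites; stock transfer was 50 nL into about 50 µL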
UCH37 inh: human UCH37 deubiquitinating enzyme inhibition. AID 588478. purified proteasome/UCH37, Ub-AMC cleavage fluorescence. 330,000 tested, 0.33% active. Q9Y5K5. inhibition, % (test concentration not listed);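 active = mean of two replicates above 20%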;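 also: 0% = compound-free wells with enzyme and 100% = wells lacking proteasome; stock transfer was 100 nL into about 20 µL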
Target sequence (Q9Y5K5 whole entry, looked up): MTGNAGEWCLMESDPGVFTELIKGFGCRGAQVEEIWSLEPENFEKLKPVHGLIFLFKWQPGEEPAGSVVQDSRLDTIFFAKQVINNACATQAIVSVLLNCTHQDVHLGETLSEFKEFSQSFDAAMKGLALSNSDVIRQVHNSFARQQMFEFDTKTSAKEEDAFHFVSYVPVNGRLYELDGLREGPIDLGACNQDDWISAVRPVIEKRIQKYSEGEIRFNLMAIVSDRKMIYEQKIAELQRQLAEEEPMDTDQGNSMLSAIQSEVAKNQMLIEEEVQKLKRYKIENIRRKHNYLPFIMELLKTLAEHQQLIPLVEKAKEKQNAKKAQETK
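Schedule: 30 min plus 25 min, room temperature / Material: human UCH37 within purified proteasomes / Technique: AMC fluorescence intensity at 355/460 nm / Buffer or medium: pH 7.4 Tris-HCl (50 mM) with ovalbumin, ATP-MgCl2, DTT / Controls: wells without proteasome as full block, compound-free enzyme plus substrate as uninhibited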
Bfl-1 A1 inh: inhibitors of the anti-apoptotic protein A1, read as caspase activation. MEF A1-2A-BIM cells, Caspase-Glo 3/7 luminescence, 3 h; percent of clofoctol response, vehicle zero. caspase activation, % (concentration not given with the values). 330,000 tested, 0.066% active;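 active = over half of replicate activation scores above 10%, or exactly half above 10 with the replicate mean above 10; inconclusive = replicate mean below 10 yet half the replicates above 10; inactive = over half of replicates below 10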;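 also: wells of about 30 µL received 50 nL stock; many hits fall short of the cut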
Ecoli rRNA inh: inhibitors of bacterial rRNA selective over humanized ribosomes; 350,000 tested, 1.6% active; GFP signal change (wild-type ribosome), % (test concentration not listed); AID 720706; E. coli WT GFP vs humanized-ribosome RFP mutants, fluorescence, 24 h; active compounds read low; DMSO median 0, no signal -100;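 active = significant combined selectivity score with lowered wild-type GFP, culture density cut under 30%, mutant RFP and density less affected; inactive = any of these conditions unmet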; also: one replicate is shown; some compounds called inactive have numbers as strong as hits
E coli growth: E. coli growth inhibition. Escherichia coli growth, OD600, 23 h; active compounds read low. OD600 absorbance (no concentration beside the values). 330,000 tested, 0.21% active;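 active = OD600 absorbance below the run mean of sample wells minus 3.6 SD, in any replicate, cut at about 0.56 in these data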;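 also: stock transfer was 300 nL into about 60 µL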
Beta cell apopt: beta cell apoptosis inhibition; INS-1E cytokine-induced death, ATP luminescence, 48 h; percent of positive-control rescue, neutral wells zero; protection from apoptosis, % (no concentration beside the values); 300,000 tested, 0.8% active; AID 435005;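 active = all replicates at 75% or more, or half of them and the mean; inconclusive = half reach 75% but not the mean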;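 also: 0% = cytokine-treated negative control wells and 100% = positive control rescue; higher means more ATP so stronger rescue from cytokine killing; wells of about 40 µL received 100 nL stock; the first replicate is given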
MLL AF4-AF9 inh: MLL-AF4/AF9 protein interaction inhibition. P42568. AlphaScreen, biotin-AF4 peptide binding to FLAG-AF9. inhibition, % at 10 µM. 350,000 tested, 0.47% active;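 active = every replicate reaching a set inhibition limit, whatever the replicate mean, cut at about 25% in these data; inconclusive = mean inhibition reaches that limit but some replicates miss it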;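 also: 0% = plate neutral control median and 100% = total signal loss; the record names both 10 and 1 µM as test concentration; the first replicate is given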
Target sequence (P42568 whole entry, looked up): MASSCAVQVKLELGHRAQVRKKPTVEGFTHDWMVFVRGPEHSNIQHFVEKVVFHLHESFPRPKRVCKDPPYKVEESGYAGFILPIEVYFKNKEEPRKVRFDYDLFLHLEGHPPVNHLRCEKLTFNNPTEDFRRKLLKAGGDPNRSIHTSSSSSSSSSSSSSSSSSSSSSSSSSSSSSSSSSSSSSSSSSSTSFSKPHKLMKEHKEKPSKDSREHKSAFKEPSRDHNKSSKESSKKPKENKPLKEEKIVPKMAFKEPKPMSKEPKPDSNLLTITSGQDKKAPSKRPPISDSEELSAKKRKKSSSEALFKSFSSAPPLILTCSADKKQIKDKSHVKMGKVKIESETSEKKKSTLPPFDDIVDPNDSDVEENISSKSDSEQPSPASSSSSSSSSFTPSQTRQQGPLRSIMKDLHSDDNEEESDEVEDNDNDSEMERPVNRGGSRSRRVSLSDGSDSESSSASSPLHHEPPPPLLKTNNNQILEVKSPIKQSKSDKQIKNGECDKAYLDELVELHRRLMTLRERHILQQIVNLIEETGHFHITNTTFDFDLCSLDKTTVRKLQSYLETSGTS
FGF22 binding: FGF22 (human) thermal shift binding; recombinant FGF22 thermal shift, SYPRO orange fluorescence; percent of sucrose octasulfate shift, DMSO zero; Q9HCT0; calls only at 9.99 µM; 340,000 tested, 1.5% active;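 active = melting point raised past a set limit in the mean and every replicate; inconclusive = no clear call; three in four hits are not shown here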
Target sequence (Q9HCT0 whole entry, looked up): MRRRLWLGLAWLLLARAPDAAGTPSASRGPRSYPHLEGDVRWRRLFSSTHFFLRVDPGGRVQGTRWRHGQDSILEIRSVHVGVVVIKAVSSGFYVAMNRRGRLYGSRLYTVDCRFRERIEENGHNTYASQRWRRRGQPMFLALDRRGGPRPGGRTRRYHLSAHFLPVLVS
Ecoli rRNA inh OD600: recorded beside Ecoli rRNA inh, whose call it bears; OD600 change, %; measured here: OD600 growth;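 optical density of the mix in the first replicate; 0 = DMSO median and -100 = no signal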
Ecoli rRNA inh RFP: also measured in Ecoli rRNA inh; calls as there; RFP signal change, %; measured here: RFP humanized mutant strains;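 first replicate; 0 = DMSO median and -100 = no signal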
An asterisk follows results filed as active; i = inactive; u = inconclusive; x = no result given.

SMILES	T cruzi repl	UCH37 inh	Bfl-1 A1 inh	Ecoli rRNA inh	Ecoli rRNA inh OD600	Ecoli rRNA inh RFP	E coli growth	Beta cell apopt	MLL AF4-AF9 inh	FGF22 binding
Cc1nc(C)c(C(=O)N2CCCC(CCC(=O)NCc3ccc(F)c(F)c3)C2)s1 (centres undefined)	14	1.3	0.3	17	2	-1.1	0.68	-3	0.0	i
Cc1cc(C)nc(N/N=C/c2cn[nH]c2-c2ccccc2)n1	-16	x	0.4	-8	-9	-4.0	x	-1	0.2	i
Clc1ccc(OCCCCN2CCCCC2)cc1	16	3.0	-0.5	x	x	x	0.66	-4	x	x
CN(C)CCCN(C(=O)COc1ccc(Cl)cc1)c1nc2cc3c(cc2s1)OCCO3	57*	1.6	-0.5	-5	-11	2.0	0.7	x	9.0	i
Cc1cc(Nc2ccc(Cl)cc2)n(-c2cccc(Cl)c2)n1	2	0.6	0.2	x	x	x	0.65	10	x	x
CCc1ccc(-c2nc(CN3CCCC(C(=O)O)C3)c(C)o2)cc1 (centres undefined)	-12	2.2	0.2	1	7	-1.5	0.71	x	2.1	i
Cc1cccc(C(=O)Nc2cccc(S(=O)(=O)NCc3ccco3)c2)c1	x	2.2	-1.3	-11	-2	0.1	0.63	1	0.7	i
CC(OC(=O)C1CSC2(C)CCC(=O)N12)C(=O)Nc1cccc(C#N)c1 (centres undefined)	-13	1.9	-0.5	8	10	3.2	0.67	2	-28	i
C=CCn1c(SCc2c(C)noc2C)nc2ccccc2c1=O	-52	3.4	-0.1	x	x	x	0.66	16	x	x
C/C(=N\NC(=O)C1CC1)c1ccc(NC(=O)c2ccc(Br)o2)cc1	-5	x	-5.3	11	2	-1.4	x	-5	-1.8	i
CCCn1c2ccccc2c2cnn(CC(=O)OC)c(=O)c21	-3	-12	1.7	-4	-16	-3.7	0.67	2	-0.4	i
C/C(=N/NC(=O)c1ccc(-c2ccccc2)cc1)c1cccc(O)c1	x	x	-0.6	-26*	-7.3*	0.7*	x	-6	-2.7	i
OCc1nc2ccc(Cl)cc2[nH]1	-9	4.5	-0.4	8	4	1.3	0.69	3	6.3	i
Cc1cc(C(F)F)n2nc(C(=O)Nc3cc(C)on3)nc2n1	-5	1.5	-0.4	x	x	x	0.75	0	x	x
COc1ccc(OCC(=O)N/N=C(\C)c2ccc(OC)cc2)cc1	-12	x	1.4	8	3	1.0	x	-1	-0.8	i

Reprinted at random: 2 records from the list, in no set order.
SMILES	T cruzi repl	UCH37 inh	Bfl-1 A1 inh	Ecoli rRNA inh	Ecoli rRNA inh OD600	Ecoli rRNA inh RFP	E coli growth	Beta cell apopt	MLL AF4-AF9 inh	FGF22 binding
C/C(=N/NC(=O)c1ccc(-c2ccccc2)cc1)c1cccc(O)c1	x	x	-0.6	-26*	-7.3*	0.7*	x	-6	-2.7	i
CN(C)CCCN(C(=O)COc1ccc(Cl)cc1)c1nc2cc3c(cc2s1)OCCO3	57*	1.6	-0.5	-5	-11	2.0	0.7	x	9.0	i

(more compounds)
SMILES	T cruzi repl	UCH37 inh	Bfl-1 A1 inh	Ecoli rRNA inh	Ecoli rRNA inh OD600	Ecoli rRNA inh RFP	E coli growth	Beta cell apopt	MLL AF4-AF9 inh	FGF22 binding
CCN1C(=O)[C@H]2[C@@H](c3ccc(OC)cc3)N3C(=O)CN(Cc4ccccc4)C(=O)[C@@]3(Cc3ccccc3)[C@H]2C1=O	-2	3.0	0.0	9	20	5.7	x	-2	-16	i
COc1cccc(CN(C)C(=O)c2cccc(OC3CCN(C4CCCC4)CC3)c2)c1	1	3.4	-0.6	-4	-5	0.6	0.67	-6	2.5	i
COc1ccc(C(=O)/C=C/c2cn(CC(O)CN3CCOCC3)c3ccccc23)cc1 (centres undefined)	x	-10	1.3	x	x	x	0.66	2	x	x
Cc1cc(NC(=O)CSc2nnc(CNC(=O)c3cccc(C(F)(F)F)c3)o2)no1	-12	1.0	0.2	7	5	2.5	0.73	14	-1.8	i
O=C(NCC(=O)N1CCC2(CC1)NCCc1[nH]cnc12)c1ccc(F)cc1	-12	5.7	0.9	9	9	-0.9	0.71	0	0.5	i
CS(=O)(=O)c1nc(S(=O)(=O)c2ccc(Cl)cc2)c(NCCCN2CCCC2=O)s1	4	3.0	1.1	5	-1	-0.4	0.67	-5	-1.9	i
CCOc1cc(Br)ccc1S(=O)(=O)N1CC(C)OC(C)C1 (centres undefined)	-32	0.9	0.7	-10	-19	2.5	0.74	3	5.5	i
Cc1ccc(C(=O)CSc2nnc(CNc3ccc(F)cc3)o2)cc1	-2	2.3	-0.4	-11	-9	0.8	0.68	-3	-3.3	i
CC(=O)Oc1ccc(C(=O)NC(C)CCc2ccccc2)cc1 (centres undefined)	4	1.5	-0.8	3	2	-2.2	0.68	2	-0.6	i
O=C(NCc1cccnc1)c1ccc(CS(=O)(=O)c2ccc(Cl)cc2)o1	-10	0.9	0.5	x	x	x	0.72	-6	x	x
COc1cc(CN(C)Cc2ccccc2)cc(OC)c1O	2	6.8	u	x	x	x	0.73	4	x	x
C[C@H](CO)N1C[C@H](C)[C@@H](CN(C)C(=O)NC2CCCCC2)Oc2c(NC(=O)Cc3ccccc3)cccc2C1=O	x	3.2	-0.9	3	5	-2.1	x	2	-13	i
COc1ccc(S(=O)(=O)N2CCC(C(=O)N[C@@H](C)C(=O)NCc3ccccc3OC)CC2)cc1	-1	3.4	1.0	3	4	0.5	0.7	2	-1.4	i
COc1ccc(CCNc2nc(-c3cccc(NC(C)=O)c3)cs2)cc1OC	-8	5.4	-0.3	-16	-20	-8.7	0.68	6	5.8	x
O=C(Nc1nnc(Cc2c[nH]c3ccccc23)s1)c1ccc(Cl)cc1Cl	1	0.1	1.1	-50	-70	-28	0.68	3	1.0	i
N#CCCN(Cc1cccnc1)S(=O)(=O)c1ccc(S(=O)(=O)NC2CCCCC2)cc1	-21	0.6	-0.3	x	x	x	0.69	1	x	x
CCCN(C(=O)c1ccccc1Cc1ccccc1)C1CCS(=O)(=O)C1 (centres undefined)	2	5.5	-0.2	8	-2	0.2	0.72	2	1.9	i
COc1ccc(Oc2ncccc2NC(=O)c2cccc(C)c2C)cc1	-4	0.5	-0.1	-14	8	-3.5	0.66	-7	-5.8	i
O=C(COC(=O)c1cccnc1Cl)Nc1cc(S(=O)(=O)N2CCCCCC2)ccc1Cl	x	0.0	x	17	7	0.1	0.67	x	0.1	x
CC(C)CC(=O)NN(C)c1nc(-c2ccccc2)nnc1C(F)(F)F	-15	2.0	0.0	x	x	x	0.72	2	x	x
O=C(O)c1occc1CSc1ccccc1	-10	1.2	0.6	-4	-2	-1.3	0.65	2	1.0	i
CCOC(=O)C(=CNc1cc(C)nn1-c1ccc(C)cc1)C(=O)OCC	31	1.2	-0.5	x	x	x	0.72	3	x	x
COC(=O)[C@@H]1C[C@@]2(O)[C@H](O)[C@H](O)[C@H](O)C[C@H]2N1Cc1ccccc1OS(=O)(=O)c1ccc(C)cc1	-17	0.4	-0.2	-4	-2	-4.6	x	-5	1.5	i
Cc1ccc(-c2noc(CCC(=O)NCCCN3CCN(c4cccc(Cl)c4)CC3)n2)cc1	3	4.6	-0.2	x	x	x	0.68	-1	x	x
CCOC(=O)N=S(=O)(Oc1ccc([N+](=O)[O-])cc1)c1ccc(Cl)cc1 (centres undefined)	-31	3.0	-0.4	x	x	x	0.72	-1	x	x
CC1CC(C)CN(CCCNC(=O)c2nn(C)c3c2CS(=O)(=O)c2ccccc2-3)C1 (centres undefined)	-2	3.4	0.6	10	6	-0.2	0.72	-1	-9.9	i
COc1ccc(N2CCN(CCNC(=O)CCNS(=O)(=O)c3cccs3)CC2)cc1	0	-3.0	-0.4	x	x	x	0.68	0	x	x
CC(=O)N1CCN(C(=O)c2cccc(S(=O)(=O)Nc3ccc(C)cc3)c2)CC1	1	0.7	0.1	x	x	x	0.74	-1	x	x
CC(=O)c1cccc(NC(=O)CN(C)S(=O)(=O)c2ccc3c(c2)CCC(=O)N3)c1	-16	2.2	x	x	x	x	0.69	-6	x	x
COC(=O)c1cc2c(=O)c3ccccc3oc2nc1/C=C/N(C)C	-16	-14	-0.9	13	7	1.6	0.71	4	0.5	i
CC(C)(C)c1cc(C(=O)NCc2ccccc2)ccn1	-6	1.6	-0.7	x	x	x	0.69	5	x	x
CCOC(=O)C1CCCN(c2cc(=O)n(Cc3ccc(F)cc3)c(=O)[nH]2)C1 (centres undefined)	-9	4.4	0.6	x	x	x	0.67	-2	x	x
CNc1nc(N)c([N+](=O)[O-])c(Nc2cccc(Cl)c2)n1	-26	5.3	-0.3	x	x	x	0.6	-4	2.4	i

Another view of some results above:
Values run as follows: T cruzi repl, UCH37 inh, Bfl-1 A1 inh, Ecoli rRNA inh, Ecoli rRNA inh OD600, Ecoli rRNA inh RFP, E coli growth, Beta cell apopt, MLL AF4-AF9 inh, FGF22 binding
> Cc1nc(C)c(C(=O)N2CCCC(CCC(=O)NCc3ccc(F)c(F)c3)C2)s1 (centres undefined)
→ 14, 1.3, 0.3, 17, 2, -1.1, 0.68, -3, 0.0, i
> Cc1cc(C)nc(N/N=C/c2cn[nH]c2-c2ccccc2)n1
→ -16, x, 0.4, -8, -9, -4.0, x, -1, 0.2, i
> Clc1ccc(OCCCCN2CCCCC2)cc1
→ 16, 3.0, -0.5, x, x, x, 0.66, -4, x, x
> CN(C)CCCN(C(=O)COc1ccc(Cl)cc1)c1nc2cc3c(cc2s1)OCCO3
→ 57*, 1.6, -0.5, -5, -11, 2.0, 0.7, x, 9.0, i
> Cc1cc(Nc2ccc(Cl)cc2)n(-c2cccc(Cl)c2)n1
→ 2, 0.6, 0.2, x, x, x, 0.65, 10, x, x
> CCc1ccc(-c2nc(CN3CCCC(C(=O)O)C3)c(C)o2)cc1 (centres undefined)
→ -12, 2.2, 0.2, 1, 7, -1.5, 0.71, x, 2.1, i
> Cc1cccc(C(=O)Nc2cccc(S(=O)(=O)NCc3ccco3)c2)c1
→ x, 2.2, -1.3, -11, -2, 0.1, 0.63, 1, 0.7, i
> CC(OC(=O)C1CSC2(C)CCC(=O)N12)C(=O)Nc1cccc(C#N)c1 (centres undefined)
→ -13, 1.9, -0.5, 8, 10, 3.2, 0.67, 2, -28, i
> C=CCn1c(SCc2c(C)noc2C)nc2ccccc2c1=O
→ -52, 3.4, -0.1, x, x, x, 0.66, 16, x, x
> C/C(=N\NC(=O)C1CC1)c1ccc(NC(=O)c2ccc(Br)o2)cc1
→ -5, x, -5.3, 11, 2, -1.4, x, -5, -1.8, i
> CCCn1c2ccccc2c2cnn(CC(=O)OC)c(=O)c21
→ -3, -12, 1.7, -4, -16, -3.7, 0.67, 2, -0.4, i
> C/C(=N/NC(=O)c1ccc(-c2ccccc2)cc1)c1cccc(O)c1
→ x, x, -0.6, -26*, -7.3*, 0.7*, x, -6, -2.7, i

Some of the compounds tested; the hit share may differ from the screen's.
